VDR inhibitor = inhibitors of human vitamin D receptor. P11473. VDR-SRC2-3 peptide fluorescence polarization, 2 h. Potency, µM, without a hit: max response, negative = inhibition, actives largely listed as inhibitors. 0.93% of 400,000 active; active = well fitted inhibition curve with a large enough effect; inconclusive = small, poorly fitted or top-dose-only effect, or another doubt; inactive = no such curve, though single readings can be large or run the other way; also: series mostly up to about 120 µM
Target sequence (P11473 whole entry, looked up): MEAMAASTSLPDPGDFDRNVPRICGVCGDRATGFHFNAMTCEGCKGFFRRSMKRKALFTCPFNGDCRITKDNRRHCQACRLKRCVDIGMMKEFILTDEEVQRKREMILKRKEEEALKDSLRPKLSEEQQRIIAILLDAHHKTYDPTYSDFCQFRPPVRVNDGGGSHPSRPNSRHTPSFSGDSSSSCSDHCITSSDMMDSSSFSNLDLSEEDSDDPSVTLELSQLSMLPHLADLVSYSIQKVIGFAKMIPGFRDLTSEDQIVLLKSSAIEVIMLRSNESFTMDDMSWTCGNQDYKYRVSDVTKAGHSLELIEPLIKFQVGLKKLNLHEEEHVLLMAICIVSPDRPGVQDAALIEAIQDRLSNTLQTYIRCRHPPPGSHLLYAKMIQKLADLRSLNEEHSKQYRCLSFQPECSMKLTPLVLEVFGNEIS
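The screen uses fluorescence polarization to detect compounds that interfere with recruitment of the SRC2-3 coactivator peptide to VDR; plates are read after 2 h at room temperature.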
An asterisk follows results filed as active; ? = inconclusive; & = joins results of further samples; [ ] = remark or other dose. % is scaled to controls: 0 for no effect and ±100 for the full control effect; potency is read from the fitted curve at half-maximal effect. These rows are one share of the data (hit frequency here may not be typical).

no.	smiles	VDR inhibitor
1	COc1ccc(/C=N/Nc2nc(N3CCCC3)nc(N3CCCC3)n2)c(OC)c1OC	-16.4%
2	Cc1c(NC(=O)c2cc3c(s2)CCCC3)c(=O)n(-c2ccccc2)n1C	18.1%
3	CN1C(=O)CC(C(=O)O)SC1=Nc1cc(Cl)cc(Cl)c1 (centres undefined)	-5.8%
4	CCOC(=O)c1c(C)c(C(=O)Nc2ccc(N(C)C)cc2)c(C)n1CC	?
5	O=C(c1cc(S(=O)(=O)N2CCOCC2)ccc1Cl)N1CCOCC1	-0.8%
6	C/C=C/C(=O)OCC(=O)Nc1nc2ccc(C)cc2s1	11.3%
7	CCOC(=O)[C@@H]1[C@H]2COc3ccc(Br)cc3[C@H]2N2C(=O)N(c3ccc(Br)cc3)C(=O)[C@]12C	8.4%
8	COc1cc(C)ccc1Oc1nc(-c2ccccc2O)nc2ccccc12	36.1%[activator]
9	O=C(CN1CCCCC1)N1CCc2ccccc21	0.0%
10	COc1ccc(OC)c(C(=O)CN2C(=O)NC(C)(c3ccccc3)C2=O)c1 (centres undefined)	1.9%
11	COc1cccc(OC)c1OCCN(C)C	9.8%
12	CN(C(=O)COc1ncnc2c1cnn2-c1ccccc1)C1CCCCC1	-21.3%
13	O=C(CCCOc1ccc(Cl)cc1Cl)NNC(=O)c1ccc(NC(=O)c2ccccc2)cc1	-1.2%
14	NCCCCCCNS(=O)(=O)c1cccc2ccccc12	-8.2%
15	COc1ccc(S(=O)(=O)N2CCOCC2)cc1NC(=O)CCNC(=O)c1ccc(Br)cc1	-24.8%
16	COc1ccc(S(=O)(=O)NCc2cccnc2)cc1Br	-7.6%
17	O=C(O)c1cccc(NS(=O)(=O)c2ccc(NC(=O)c3ccco3)cc2)c1	8.0%
18	O=[N+]([O-])c1cc(C(F)(F)F)cc([N+](=O)[O-])c1NN=C1CCCCC1	50.1µM*
19	C=CCNC(=O)CN1CCC(c2nc3ccccc3[nH]2)CC1	-15.5%
20	Cc1ccc(Cn2cc(C(=O)c3ccc(C)cc3)c(=O)c3ccc(C)nc32)cc1	-12.1%
21	CCCn1c(=O)c(C(=O)NNS(=O)(=O)c2ccc(NC(=O)OC)cc2)c(O)c2ccccc21	-3.4%
22	Cc1ccc2cc(CCNC(=O)c3ccc4c(c3)OCO4)c(=O)[nH]c2c1C	-6.2%
23	CC(=O)c1ccc(OC(=O)C(CCS(C)(=O)=O)N2C(=O)c3ccccc3C2=O)cc1 (centres undefined)	1.6%
24	Cc1oc(-c2cccc(Cl)c2)nc1CSCC(=O)O	7.3%&-13.4%

Down the list, quoted from above.
VDR inhibitor for nos. 15–24: -24.8%, -7.6%, 8.0%, 50.1µM*, -15.5%, -12.1%, -3.4%, -6.2%, 1.6%, 7.3%&-13.4%

Other records.
no.	smiles	VDR inhibitor
25	Cc1cc(NC(=O)Nc2ccc(Cl)c(Cl)c2)no1	3.9%
26	CCCc1noc(-c2ccc(N3CCCCC3)c([N+](=O)[O-])c2)n1	9.2%
27	COCCSc1nnc(NC(=O)CCS(=O)(=O)c2ccccc2)s1	31.6%[activator]
28	O=C(Cn1c(=O)sc2ccccc21)Nc1ccc(S(=O)(=O)N2CCCC2)cc1	7.4%
29	O=C(/C=C/c1ccco1)N(Cc1cccc(F)c1)C1CCS(=O)(=O)C1 (centres undefined)	10.9%
30	COc1cccc(-c2nc(-c3ccccc3)nc(N3CCN(C)CC3)c2C#N)c1	-12.6%
31	COc1cccc(CC(=O)Nc2nc(C)cs2)c1	-3.4%
32	O=C(Nc1ccc2[nH]ccc2c1)c1ccccc1	0.1%
33	Cc1ccccc1NC(=S)N=Nc1c(O)n(C)c2ccc(S(=O)(=O)N3CCOCC3)cc12	-11.5%
34	O=C(NCCN1CCN(C(=O)c2cccc(Br)c2)CC1)C(=O)NCc1ccccc1	-11.1%
35	c1ccc(CSc2ncnc3c2ncn3C2CCCCO2)cc1 (centres undefined)	10.4%
36	CCCCOc1ccc(C2=NC(c3cccs3)=Nc3ccc(OC)cc3N2)cc1	12.4%
37	COc1ccc2cc3cc(C(=O)N4CCN(c5ccccc5)CC4)oc3nc2c1	-2.4%
38	CC(C)NC(=O)c1[nH]nc2c1CCc1ccccc1-2	31.3%[activator]
39	COC(=O)[C@@]1(C)[C@H]2C(=O)N(Cc3ccccc3)C(=O)[C@H]2[C@H]2CN=C(SCC(=O)c3ccccc3)N21	20µM*
40	COc1ccc(-n2nc(C)c3c(C(F)(F)F)cc(-c4cccnc4)nc32)cc1	0.2%
41	CCOC(=O)c1ccccc1NC(=O)CSc1nnc(C(C)C)n1CC	-15.0%
42	COc1ccc(NC(=S)NCCc2ccc(F)cc2)c(OC)c1	-12.9%
43	C#CCOCCOCCOCCNc1nc(N2CCN(C(=O)CCCCCCCCCCNC(=O)[C@H](CCCCN)n3cc(C)nn3)CC2)nc(N2CCN(C(=O)CCCCCCCCCCNC(=O)[C@@H]([C@H](C)O)n3cc(C)nn3)CC2)n1	17.2%
44	Cc1occc1C(=O)NNC(=O)Cc1ccccc1	-15.5%
45	O=C(CCC(=O)N1Cc2ccccc2Oc2ncccc21)NCc1ccccc1Cl	-10.8%
46	CN(CC(=O)NC(=O)NC1CCCCC1)CC(=O)Nc1ccc(OC(F)(F)F)cc1	11.3%
47	O=c1c2[nH]c3ccccc3c2nc(SCc2cccc(F)c2)n1-c1ccccc1	14.8%
48	O=S(=O)(c1ccc2nc(SCc3ccc(Cl)cc3)[nH]c2c1)N1CCOCC1	-6.3%
49	O=S1(=O)N=CN(Cc2cccc(F)c2)c2ccccc21	-3.7%
50	COc1ccccc1C(=O)O/N=C(/C)c1ccc(N2C(=O)C3CCCCC3C2=O)cc1 (centres undefined)	2.6%
51	Nc1nc(SCC(=O)O)[nH]c(=O)c1NC(=O)c1ccccc1F	4.3%
52	Cc1ccc(C2(C)CC(C)(C)N(C(=O)CSc3nnc(C)s3)c3ccccc32)cc1 (centres undefined)	-17.3%
53	CN(C)C(/C=C/Nc1ccccc1F)=C(C#N)C#N	0.0%
54	O=C(CCC1(C(=O)O)CCC(=O)NC1)NCc1ccccc1 (centres undefined)	5.5%
55	Cc1ccnc(NC(=O)c2cccc(NC(=O)c3ccc(Cl)cc3)c2)c1	-1.6%
56	N#Cc1c(NC(=O)C2C3C=CC(C3)C2C(=O)O)sc2c1CCCCC2 (centres undefined)	-15.9%
57	Cc1ccccc1NC(=O)CN1C(=O)S/C(=C\c2cccn2-c2cccc(C(=O)O)c2)C1=O	13.7%
58	COc1cccc(-n2c(SCc3ccccn3)nc3c(c2=O)SCC3)c1	1.5%
59	Cc1cccc(NC(=O)/C(C#N)=C/c2ccc(Sc3ccccc3)o2)c1C	-6.9%
60	COc1ccc(N2C(=O)C(Cl)=C(Oc3cccc(OC)c3)C2=O)cc1	28.2µM*
61	COc1ccc(/C=N/NC(=O)c2cc(-c3ccccc3OC)nc3ccccc23)cc1COC(C)=O	5.7%
62	O=c1[nH]c(CN2CCN(c3ccccc3Cl)CC2)nc2ccsc12	-5.7%
63	COc1ccc(CCNC(=O)CN(c2cccc([N+](=O)[O-])c2)S(C)(=O)=O)cc1	-28.0%
64	O=C(Nc1cccc(-c2cn3c(n2)SCC3)c1)c1ccc2ccccc2n1	3.0%
65	CC(=O)c1ccccc1NS(=O)(=O)c1ccc2c(c1)CC(=O)N2	-4.0%
66	Cc1cc(CN(C)C(=O)CC2C(=O)NCCN2Cc2ccc(-c3ccccc3)cc2)on1 (centres undefined)	-7.9%
67	COC(=O)c1cc2ccsc2n1CC(=O)Nc1cc(C)cc(C)c1	5.7%
68	Cc1ccc(NC(=O)c2cc(-c3ccco3)on2)cc1	-7.9%
69	Cc1ccc2nc(SCC(=O)Nc3ccc(F)cc3)nc(=O)n2c1	-11.7%
70	O=C(Nc1ccc(-c2nc3c(ccc4ccccc43)o2)cc1)c1ccco1	3.4%
71	COC(=O)[C@H](Cc1ccccc1)NC(=O)c1ccc2ccccc2n1	-7.6%
72	Cc1ccc(N2CC(C(=O)Nc3cc(C)on3)CC2=O)c(C)c1 (centres undefined)	-6.4%
73	O=c1c(Cc2ccc(F)cc2)c(O)ccn1CCc1ccccn1	-0.7%
74	CCc1nnc(NC(=O)c2ccccc2NC(=O)C2CCN(C(=O)c3ccco3)CC2)s1	-19.1%
75	O=C(/C=C/c1ccc(O)cc1)OC[C@H]1O[C@@H](Oc2c(-c3ccc(O)cc3)oc3cc(O)cc(O)c3c2=O)[C@H](O)[C@@H](O)[C@@H]1O	-3.2%
76	Cc1ccccc1-n1c(SC/C(O)=C(\C#N)c2nc3ccccc3[nH]2)nnc1-c1ccncc1	-26.6%
77	CCn1c2ccccc2c2cc(Nc3cc(C)nc4ncnn34)ccc21	?
78	O=C(CC1NCCc2ccccc21)Nc1cccc(Cl)c1 (centres undefined)	4.6%
79	Cc1cc(C)n(CC(=O)NNC(=O)CCNC(=O)c2ccccc2Cl)n1	?
80	Cc1ccccc1CSCCNS(C)(=O)=O	-5.6%
81	O=C(NCC(=O)N1CCc2ccccc2C1)c1ccccc1Cl	-2.2%
82	CCN1C(=O)CSc2ccc(C(=O)OC)cc21	-29.0%
83	Cc1ccc(NC(=O)c2c(C)noc2-c2snnc2C)cc1	-0.1%
84	Cc1ccc(Cn2ccn(Cc3ccccc3C)c(=O)c2=O)cc1	10.5%

Other structures.
no.	smiles	VDR inhibitor
85	COc1ccc(N2CC(C(=O)Nc3nnc(SCC(=O)NCC4CCCO4)s3)CC2=O)cc1 (centres undefined)	?
86	CNC(=S)N1CCN(S(=O)(=O)c2ccc3ccccc3c2)CC1	-16.9%
87	NC(=O)CC[C@@H]1NC(=O)[C@@H]2CCCN2C(=O)c2cc([N+](=O)[O-])cc(F)c2NCCC[C@@H](C(N)=O)NC1=O	11.6%
88	CC(C)CC(NC(N)=O)C(=O)OCC(=O)N(Cc1ccccc1)Cc1ccccc1 (centres undefined)	-5.9%
89	Cc1c(N2C(=O)CSC2c2ccc([N+](=O)[O-])cc2)c(=O)n(-c2ccccc2)n1C (centres undefined)	-14.4%
90	Cc1ccc(NC(=O)C2CCCN2S(=O)(=O)c2cccc3cccnc23)cc1C (centres undefined)	-9.4%
91	O=C(O)C1=C[C@H](c2ccc(C(F)(F)F)cc2)C[C@H](OCCCCO)O1	5.9%
92	Cc1noc(C)c1CSCC(=O)Nc1cc(S(=O)(=O)N2CCOCC2)ccc1OC(C)C	1.0%
93	COc1cc(/C=N/NC(=O)C(C)n2nnc3ccccc32)ccc1O (centres undefined)	0.0%
94	COc1ccccc1NC(=O)Nc1cccnc1	-5.1%
95	O=C(NC(=S)NC1CC1)c1cccnc1	9.4%
96	O=C(O)c1cc(/C=C/C(=O)c2cc(F)ccc2O)c2c(c1)COCO2	25.1µM*
97	Cc1ccc(CNC(=O)c2ccc(Cn3c(=O)c4ccccc4n(CC(=O)Nc4ccc(C)cc4C)c3=O)cc2)cc1	-12.1%
98	Cn1nnc2ccccc2c1=O	2.9%
99	O=C(O)CC(=O)Nc1ccc(Oc2ccc(C(F)(F)F)cn2)c(Cl)c1	-2.5%
100	CSCCCNC(=S)N1CCc2ccccc2C1	11.4%
101	Cc1ccnc(NC(=O)CCC(=O)N(CC(=O)NC(C)(C)C)C2CCCC2)c1	11.4%
102	CC(=O)c1cccc(NC(=O)c2cccc(N3C(=O)c4ccccc4C3=O)c2)c1	-3.3%
103	COc1ccccc1C(C[N+](=O)[O-])c1c[nH]c2ccccc12 (centres undefined)	-6.1%
104	O=C(CSc1ncn[nH]1)Nc1cccc(S(=O)(=O)N2CCCCCC2)c1	1.7%
105	Cc1ccc(S(=O)(=O)N(C)CC(=O)NNC(=O)CCS(=O)(=O)c2ccccc2)cc1	-9.6%
106	CO/N=C\CC(=O)Nc1ccc(Cl)c(Cl)c1	-11.2%
107	CCOC(=O)c1c(/N=C/C2=C(O)CC(C)(C)CC2=O)sc(C(C)=O)c1C	-3.0%
108	CCN(Cc1ccncc1)C(=O)c1ccc2c(c1)S(=O)(=O)c1ccccc1C2=O	8.7%

Random excerpt: two records from the list
no.	smiles	VDR inhibitor
102	CC(=O)c1cccc(NC(=O)c2cccc(N3C(=O)c4ccccc4C3=O)c2)c1	-3.3%
97	Cc1ccc(CNC(=O)c2ccc(Cn3c(=O)c4ccccc4n(CC(=O)Nc4ccc(C)cc4C)c3=O)cc2)cc1	-12.1%

Going on with the list:
no.	smiles	VDR inhibitor
109	O=C(CCC(=O)OCC(=O)c1ccc(Cl)cc1)NC1CCCCC1	-2.0%
110	Cc1ccc(C(C(=O)NC(C)(C)C)N(CCCN2CCOCC2)C(=O)c2ccc(-c3ccccc3)[nH]2)o1 (centres undefined)	-10.8%
111	Cc1cc(S(=O)(=O)N2CCCCC2CCNC(=O)C(=O)NCc2cccnc2)ccc1F (centres undefined)	-2.3%
112	O=c1c(-c2cccs2)nc2cnc(N3CCOCC3)nc2n1-c1ccccc1	-18.1%
113	CCOc1ccccc1C(=O)OCC(=O)NCCc1ccc(OC)cc1	12.5%
114	COc1cc(NC(=O)Cn2c([N+](=O)[O-])cnc2C)c(OC)cc1Cl	-1.8%
115	COc1cc(/C=C/c2[nH]c(=O)[nH]c(=O)c2[N+](=O)[O-])cc([N+](=O)[O-])c1O	-8.6%
116	Cc1cc(/C=N/NC(N)=S)c(C)n1-c1ccc(Cl)cc1	-28.4%
117	CCOc1ccccc1-c1cc(-c2n[nH]c(=S)n2CC)c2ccccc2n1	-14.9%
118	Cc1cccc(NC(=O)CCCCCN2C(=O)[C@@H]3Cc4ccccc4CN3C2=O)c1	-24.9%
119	CCC(=O)Nc1nnc(SCCOC)s1	-18.1%
120	COc1cc(NC(=O)CN2C(=O)c3ccccc3Sc3ccc(C(=O)N4CCOCC4)cc32)cc(OC)c1OC	10.6%
121	O=C(CS(=O)(=O)Cc1ccccc1)N1CCN(c2ccccc2F)CC1	-2.0%
122	Cc1cc(NS(=O)(=O)c2ccc(NC(=O)/C=C/c3ccco3)cc2)nc(C)n1	6.5%
123	CCOc1ccccc1OCCCCN1CCCC1	-5.1%
124	COc1cc(NC(=O)c2cc(C)nc3ccccc23)cc(OC)c1OC	12.0%
125	Cc1nc2ccc(NC(=O)NCCO)cc2s1	14.8%
